# Screening results: PubChem, National Center for Advancing Translational Sciences (NCATS)
# Rango release inh: qHTS Assay for Inhibitors of RanGTP induced Rango (Ran-regulated importin-beta cargo) - Importin beta complex dissociation; Biochemical FRET Rango-importin beta, RanGTP-induced dissociation; 0.071% of 340,000 active; AID 540253, 2011; Potency, µM (top dose mostly 46.1 µM), without a hit: top-dose activity change, negative = inhibition; active means falling FRET ratio curve, often poorly fitted, with flat reads before Ran was added; inconclusive means other falling curves, or compound fluorescence or quenching; inactive means flat or rising ratio curve;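 further: potency means the concentration at half of the fitted maximal effect; % of control where 0% means no effect; nearly all actives have a fitted effect of over 45% in size; -100% = wells without RanGTP and RCC1; the record marks most hits as doubtful in a second field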
#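 Rango/importin beta premix (0.1/0.25 uM final), PBS + 1 mM DTT + 0.02% Tween-20 + 0.1% BSA; cpd 5 min RT; FRET pre-read; + RanGTP-RCC1 (0.6 uM Ran, 2 mM GTP, 0.2 uM RCC1); 45 min RT; FRET post-read, ex 430, em 486/530 nm.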
# Rango-impB inh: qHTS Assay for Inhibitors of Rango (Ran-regulated importin-beta cargo) - Importin beta complex formation. 0.031% of 340,000 active. Rango CFP/YFP FRET sensor + importin beta, 45 min. AID 540263, 2011. Potency, µM (titrated, usually from 92.2 µM), for inactives: at the highest dose inhibition of complex formation; active = rising FRET ratio curve, often small or poorly fitted; inconclusive = mostly compound fluorescence or quenching in the first reads; inactive = flat curves in all reads;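 further: potency means the concentration at half of the fitted maximal effect; 0% = DMSO wells and 100% = buffer wells lacking importin beta; nearly all actives have a fitted effect of over 15% in size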
# Target sequence (Q14974 whole entry, looked up): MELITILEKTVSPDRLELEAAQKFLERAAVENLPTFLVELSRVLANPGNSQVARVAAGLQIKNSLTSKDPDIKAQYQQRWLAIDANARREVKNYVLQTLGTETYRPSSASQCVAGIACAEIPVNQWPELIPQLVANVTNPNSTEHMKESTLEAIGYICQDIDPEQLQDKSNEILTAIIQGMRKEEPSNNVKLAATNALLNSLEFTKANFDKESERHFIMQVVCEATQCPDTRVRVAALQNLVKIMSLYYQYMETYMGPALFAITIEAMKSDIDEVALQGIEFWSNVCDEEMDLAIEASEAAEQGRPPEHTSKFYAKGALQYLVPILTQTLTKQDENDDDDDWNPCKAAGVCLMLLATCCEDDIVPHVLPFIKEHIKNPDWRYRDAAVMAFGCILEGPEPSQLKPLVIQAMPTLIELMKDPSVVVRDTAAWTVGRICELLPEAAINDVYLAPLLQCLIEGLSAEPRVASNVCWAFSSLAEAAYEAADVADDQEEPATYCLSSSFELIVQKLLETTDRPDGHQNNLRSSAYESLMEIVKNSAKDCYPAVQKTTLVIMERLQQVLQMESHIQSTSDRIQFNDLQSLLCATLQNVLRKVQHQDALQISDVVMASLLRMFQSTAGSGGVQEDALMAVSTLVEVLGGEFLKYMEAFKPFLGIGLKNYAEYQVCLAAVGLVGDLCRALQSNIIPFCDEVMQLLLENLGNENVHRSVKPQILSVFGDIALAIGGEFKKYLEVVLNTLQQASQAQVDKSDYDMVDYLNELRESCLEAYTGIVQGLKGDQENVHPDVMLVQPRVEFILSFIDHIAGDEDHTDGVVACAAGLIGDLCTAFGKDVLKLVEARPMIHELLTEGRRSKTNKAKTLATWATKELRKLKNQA
#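 FRET biosensor (snurportin 1 IBB flanked by EYFP and cerulean), 50 nM, with compound 5 min, then 0.125 microM importin beta in PBS, 1 mM DTT, 0.02% Tween-20, 0.1% BSA. CFP/YFP ratio read after 45 min at room temperature; pre-read flags interference.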
# miR-21 reporter: qHTS Assay for Modulators of miRNAs and/orActivators of miR-21 | HeLa miR-21 FLuc reporter, luciferase, 48 h | Potency, µM (top dose mostly 38.3 µM), for the others: at the top dose reporter change, positive = more light | 340,000 tested, under 10 active; active = well fitted rising curve with a large enough effect; inconclusive = small, poorly fitted or top-dose-only effect; inactive = no such curve, though single readings can be large or run the other way;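 further: % of control where 0% means no effect; miR-21 action dims this reporter so a rising signal means less miR-21 action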
#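 Using DMEM plus 10% FBS, HeLa miR-21-FLuc cells are incubated with test compounds (final up to about 40uM) for 48 hours; firefly luciferase signal is then imaged following reagent-mediated lysis.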
# GLA inh pH 4.5: qHTS Assay for Inhibitors of Human alpha-Galactosidase at pH 4.5; purified enzyme, 4-MU-alpha-Gal fluorescence, pH 4.5; activity change, negative = inhibition, % at 105 µM; 230,000 tested, under 10 active; inconclusive = small, poorly fitted or top-dose-only inhibition, or a rising curve; inactive = flat fitted curve, though single readings scatter; no compound was filed as active;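 further: 0% = full activity with enzyme and -100% = basal without enzyme; dose as in the result columns while the protocol names 77 µM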
# Numbers without * were called inactive; ? = inconclusive; · = no result given; & = joins results of further samples.
item	molecule	Rango release inh	Rango-impB inh	miR-21 reporter	GLA inh pH 4.5
1	Cc1ccc(Nc2cc(C)nc(-c3ccccc3)n2)cc1	8.2%	0.8%	-62.3%	·
2	CCN(Cc1ccccc1)S(=O)(=O)c1ccc(S(=O)(=O)N2CCN(CCC#N)CC2)cc1	1.8%	-1.4%	-0.1%	-1.8
3	CCOC(=O)C1CCN(CC(O)COC(CC)c2ccccc2)CC1 (stereo not drawn)	8.2%	2.3%	2.6%	·
4	O=C(OC1CSc2nc3ccccc3n2C1)c1ccco1 (stereo not drawn)	13.5%	-3.1%	-1.7%	-2.5
5	COc1ccc(NC(=O)CCOc2ccccc2)cc1	-15.5%	-4.8%	-49.1%	6.5
6	Cc1[nH]c2ccccc2c1/C=N/NC(=O)c1cc(-c2ccccc2)n[nH]1	-19.1%	5.2%	10.1%	-6.7
7	O=C(COc1ccccc1Cl)NCCNC(=O)c1cccnc1	-0.1%	-3.7%	-0.7%	·
8	Cc1cc(C)c(NC(=O)CS(=O)CC(=O)Nc2ccc(N3CCOCC3)cc2)c(C)c1 (stereo not drawn)	2.0%	0.2%	-0.2%	·
9	CCOC(=O)Nc1sc(C)nc1-c1ccccc1	-12.6%	-3.9%	-15.9%	-1.2
10	CC(=O)Nc1cc(NC(C)=O)c(CC(C)C)s1	-11.9%	-2.9%	-0.4%	-2.1
11	Cc1cccc(N2CCN(c3ccc(C(N)=O)cc3[N+](=O)[O-])CC2)c1C	18.4%	-0.3%	1.1%	4.6
12	O=C(CN1C(=O)c2ccccc2C1=O)Nc1nc(-c2cccc([N+](=O)[O-])c2)cs1	·	·	-6.0%	-4.5
13	c1ccc(-n2ncc3c(NCC4CCCO4)ncnc32)cc1 (stereo not drawn)	-4.1%	?	-21.3%	6.8
14	CSCCC(NC(=O)C12CC3CC(CC(C3)C1)C2)C(=O)OCC(=O)c1ccc(C)cc1 (stereo not drawn)	-1.0%	0.6%	-1.3%	0.2
15	COc1ccc(/C=C/C(=O)OCC(=O)Nc2ccc(S(N)(=O)=O)cc2)cc1OC	14.0%	0.3%	-4.6%	0.4
16	Cc1cc(NC(=O)C(C)SCC(=O)Nc2cccc(S(=O)(=O)N3CCCCCC3)c2)no1 (stereo not drawn)	-9.3%	-13.4%	·	·
17	CCN(CC)S(=O)(=O)c1ccc2c(c1)[nH]c(=S)n2CC	26.0%	0.5%	-1.6%	1.3
18	O=C(COC(=O)C1=COCCO1)Nc1ccc2c(c1)OCO2	-12.9%	-0.3%	-10.4%	3.8
19	COc1ccc(C(=O)N2CCN(c3ncccn3)CC2)cc1	-4.7%	-3.4%	-3.8%	·
20	Cc1ccsc1CCNC(=O)C1CCC(=O)N(CCc2cccc(F)c2)C1 (stereo not drawn)	-6.9%	-0.9%	-59.0%	·
21	CN(CC(=O)Nc1ccc(Cl)cc1)C(=O)c1cccc(S(=O)(=O)N(C)C)c1	8.0%	2.4%	-6.8%	-0.2
22	Cc1cc(-n2c(C)cc(C(=O)COc3ccc(Cl)cc3C(N)=O)c2C)no1	-6.7%	4.5%	·	·
23	OCCC1CN(Cc2nc3ccccc3s2)CCN1C1CCCC1 (stereo not drawn)	-5.7%	-4.8%	-0.6%	3.5
24	Cc1ccc(S(=O)(=O)Nc2ccc(-c3nc4cc(NS(=O)(=O)c5ccc(C)cc5)ccc4o3)cc2)cc1	·	·	?	24.3
25	COc1cccc(CN(C)CC(=O)Nc2ccccc2C(=O)Nc2ccccc2)c1OC	0.8%	-0.8%	7.9%	-3.9
26	Cc1nn(C)c(N)c1-c1ccccc1	7.7%	0.7%	-6.6%	-1.8
27	CC(=O)Nc1ccccc1-c1nc2cc(C#N)c(C#N)cc2[nH]c1=O	-5.1%	3.8%	-22.9%	·
28	CCOC(=O)N1C(=O)NC(=O)C1c1ccc(OC)cc1 (stereo not drawn)	1.7%	-0.8%	·	·
29	Cc1ccc(C(=O)CSc2nnc(C3CC3)n2C2CC2)s1	-8.4%	?	·	·
30	CCNC(=S)N(CCc1c(C)[nH]c2ccc(C)cc12)Cc1cc(OC)c(OC)c(OC)c1	1.3%	0.2%	-1.4%	-6.5
31	CCCCS(=O)(=O)N1CCCC(C(=O)Nc2ccc3c(c2)CCC3)C1 (stereo not drawn)	14.5%	0.9%	-0.6%	·
32	O=c1nc(SCc2ccc(Cl)cc2)nc(-c2ccccc2)[nH]1	-12.5%	?	3.4%	-0.6
33	CC(C)C[C@H](NC(=O)[C@@H]1Cc2c([nH]c3ccccc23)C2c3ccccc3C(=O)N21)C(=O)N1CCC[C@@H]1C(=O)O (stereo partly drawn)	?	?	-1.7%	·
34	Cc1nnc(NC(=O)CC(NC(=O)C(F)(F)F)c2ccccc2)s1 (stereo not drawn)	0.3%	-0.3%	-24.5%	8.4
35	COCCN(C(=O)CCC(=O)Nc1ccccn1)C(C(=O)NCCC(C)C)c1ccc(F)cc1 (stereo not drawn)	6.2%	-1.0%	-0.7%	·
36	CCCCOC(=O)Nc1sc2c(c1C(=O)OC)CCC2	-7.5%	-0.4%	-4.7%	3.0
37	CC(/C=N/NC(=O)c1ccccc1F)=C\c1ccccc1	16.6%	0.8%	-36.0%	·
38	O=C(O)c1cccc(N2C(=O)c3cccc4cccc(c34)C2=O)c1	-6.5%	3.1%	-3.8%	·
39	CSc1ccc(CN(C)CC(=O)Nc2ccc(C)cc2Br)cc1	18.6%	-0.9%	-10.7%	-7.8
40	COc1ccc(CNC(=O)CS(=O)CC(=O)O)cc1OC (stereo not drawn)	10.1%	-1.3%	-5.6%	7.2
41	CCOC(=O)N1CCC(NC(=O)c2ccc3snnc3c2)CC1	7.4%	-0.8%	-2.3%	3.6
42	Cc1cccc(-c2noc(CN(C)C(=O)c3ccc4c(c3)OCO4)n2)c1	-4.1%	0.0%	-10.1%	·
43	COc1ccc(C(=O)NC2CCC(O)CC2)cc1S(=O)(=O)NCc1ccc(Cl)cc1 (stereo not drawn)	?	6.7%	·	·
44	O=C(CN1C(=O)C(=O)N(C2CCCC2)C1=O)Nc1ccc(F)cc1F	8.7%	-3.3%	·	·
45	O=[N+]([O-])c1ccccc1S(=O)(=O)Oc1ccccc1/C=N/n1cnnc1	-10.8%	0.2%	7.5%	-1.4
46	Cc1ccc(CN2CCN(Cc3cnc(N(C)C)s3)CC2CCO)o1 (stereo not drawn)	-4.3%	-1.8%	3.7%	2.2
47	O=C(O)C1CC=CCC1C(=O)N1CCc2ccccc21 (stereo not drawn)	2.1%	1.4%	-2.4%	-11.4
48	Cc1ccc(Cl)c2c1NC(=O)C2(O)CC(=O)c1ccc(F)cc1 (stereo not drawn)	-2.8%	0.8%	-2.2%	-2.8
49	CCCOc1ccccc1C1NC(=O)NC(C)=C1C(=O)OCCOC (stereo not drawn)	3.9%	-1.0%	-0.5%	4.8
50	COC(=O)N[C@H](c1ccccc1)[C@@]1(C)C[C@@H]1[C@@H](C)C(=O)Nc1ccc2ccccc2c1	-10.6%	3.9%	·	-1.9
51	Cc1c(Cl)cccc1NC(=O)NCc1ccccn1	2.9%	5.9%	-16.8%	·
52	O=C(NCc1ccncc1)C(=O)Nc1ccc2c(c1)OCO2	-8.3%	4.1%	-6.6%	9.4
53	CCCCn1c(-c2nonc2NC(=O)c2ccccc2Cl)nc2ccccc21	-7.6%	-2.1%	·	·
54	CC(C)c1ccc2nc(SCC(=O)NCC3CCCO3)c(C#N)cc2c1 (stereo not drawn)	-1.6%	0.1%	-59.9%	·
55	COc1ccc(S(=O)(=O)N2CCCCC2)cc1NC(=O)C1CC1	18.8%	-3.3%	·	·
56	CCCCOc1ccc(NC(=O)[C@@H]2CCCN2C(=O)C2CCN(S(=O)(=O)c3ccc(C)cc3)CC2)cc1	15.5%	0.0%	18.7%	-1.3
57	ClCC1=Nc2cccc3cccc(c23)N1	·	·	-0.2%	0.8
58	COc1cc(N=Nc2ccc(C(=O)N(C)C)cc2)c(C)cc1N	9.1%	0.7%	·	·
59	CCOCCCn1c(-c2ccc(Cl)cc2)n[nH]c1=S	39.2%	2.3%	-1.6%	6.3
60	CCN1CCN(C(=O)c2ccc(CS(=O)(=O)Cc3ccccc3C)o2)CC1	2.1%	0.1%	-3.4%	·

# Structures shown so far that contain a furan ring, fused or not (3):
item	molecule	Rango release inh	Rango-impB inh	miR-21 reporter	GLA inh pH 4.5
4	O=C(OC1CSc2nc3ccccc3n2C1)c1ccco1 (stereo not drawn)	13.5%	-3.1%	-1.7%	-2.5
46	Cc1ccc(CN2CCN(Cc3cnc(N(C)C)s3)CC2CCO)o1 (stereo not drawn)	-4.3%	-1.8%	3.7%	2.2
60	CCN1CCN(C(=O)c2ccc(CS(=O)(=O)Cc3ccccc3C)o2)CC1	2.1%	0.1%	-3.4%	·

# The list goes on.
item	molecule	Rango release inh	Rango-impB inh	miR-21 reporter	GLA inh pH 4.5
61	COC(=O)C1=C(C)NC(=S)NC1c1ccc(-c2ccccc2C(=O)OC)o1 (stereo not drawn)	-6.2%	-2.0%	-5.2%	-8.2
62	O=C(NC(=S)N1CCCc2ccccc21)c1ccc(Cl)cc1	-11.3%	-1.3%	-25.7%	-7.3
63	O=C(N/N=C/c1cc(Br)c(O)c(Br)c1)C1CC1	1.1%	-2.0%	-3.7%	·
64	Cc1ccc(-n2c(=S)sc3c(=O)n(-c4ccc(F)cc4)c(SCC(=O)O)nc32)cc1C	1.7%	1.5%	-1.0%	·
65	Cc1oc2c(CN3CCCC3)c(O)ccc2c(=O)c1-c1ccc(Br)cc1	-1.4%	-1.6%	-3.4%	-6.1
66	C=CCC1(CC=C)CCCN1Cc1nc(COc2ccccc2)no1	-12.1%	?	2.6%	-8.0
67	Cn1c(CO)cnc1SCC(=O)c1ccc(Br)cc1	-9.7%	-0.4%	-9.6%	1.3
68	CN(Cc1nc(Cc2cccc(F)c2)no1)CC1CCOCC1	1.0%	-0.5%	-5.4%	7.7
69	CCC1CCCCN1CCCNC(=O)c1c(O)nc2c(C)cccn2c1=O (stereo not drawn)	?	-1.3%	0.0%&2.0%	·
70	CCOC(=O)/C(C#N)=C/c1ccc(-c2ccsc2C(=O)OC)o1	?	?	-6.0%	-0.2
71	CCOC(=O)c1cc2c(=O)n3ccccc3nc2n(Cc2ccccc2)c1=N	?	?	-1.1%	2.8
72	CN(Cc1ccon1)Cc1cn[nH]c1-c1ccc(-c2ccccc2)cc1	-0.6%	-0.2%	-32.7%	-1.5
73	CCOC(=O)C1CCN(c2c(NCCC(C)C)c(=O)c2=O)CC1	-1.7%	0.2%	-0.9%	-2.4
74	Cc1csc2ncc(C(=O)N3CCc4ccccc43)c(=O)n12	14.4%	0.6%	·	·
75	CCCC(=O)OCC(=O)Nc1ccc(N=Nc2ccccc2)cc1	17.3%	-0.3%	-73.8%	-8.3
76	Cn1c(=O)cc(SCC(=O)NCC2CCCO2)c2ccccc21 (stereo not drawn)	?	13.1%	-6.2%	-8.8
77	COc1ccc(CC(=O)NCC2CCCN(Cc3ccccc3Cl)C2)cc1 (stereo not drawn)	4.5%	4.0%	1.6%	·
78	O=C(N/N=C/c1ccccc1F)c1cc2c(ccc3ccccc32)o1	-27.5%	-5.5%	-4.8%	·
79	O=C(COC(=O)Cc1ccc(F)cc1)Nc1ccc(Cl)cn1	4.1%	-5.8%	·	·
80	CN(CC(=O)Nc1cccc(F)c1)C(=O)CCCc1c[nH]c2ccccc12	13.1%	-4.2%	·	·
81	O=C(NCc1cccnc1)Nc1cccc([N+](=O)[O-])c1	?	13.8%	-2.2%	·
82	O=S(=O)(c1ccccc1)N1CCCCC1CCc1ccccc1 (stereo not drawn)	7.8%	-1.1%	·	·
83	CC(=O)c1c(C)[nH]c(C(=O)Nc2ccc(Cl)c(S(=O)(=O)N3CCOCC3)c2)c1C	2.6%	-2.8%	10.5%	-14.4
84	CCN(Cc1nc2cc(Cl)ccc2c(=O)[nH]1)C(=O)c1cccc(NC(=O)c2cccs2)c1	-10.4%	-4.4%	·	·

# An excerpt; rates above refer to the full screens.
